Screening data deposited in PubChem BioAssay by National Center for Advancing Translational Sciences (NCATS).
SmPrx2 inh: Schistosoma Mansoni Peroxiredoxins (Prx2). Schistosoma mansoni peroxiredoxin 2 (Prx2). AID 448, 2006. hit rate 0.07% among 65,000. S. mansoni Prx2 activity coupled to TGR/GSH (TGR is thioredoxin glutathione reductase), NADPH fluorescence loss, qHTS; some inactives read as strong as hits. Potency, µM; active means full or partial inhibition curve with a strong effect at the top dose; inconclusive means weaker partial or single-point curve; inactive means no accepted curve; note: series up to 57 µM; many of its hits are not listed in these tables
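Enzyme mix: 100 uM NADPH, 25 nM TGR, 700 uM GSH, 50 nM Prx2 in 100 mM phosphate pH 7.4, 10 mM EDTA, 0.01% Tween-20. 15 min RT with compound; NADPH/GSH added, H2O2 starts reaction; NADPH fluorescence read 8 min.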
Anthrax LT inh: qHTS Assay for Anthrax Lethal Toxin Internalization; Cells, anthrax lethal toxin internalization, FRET ratio (460/530); hit rate 0.67% among 70,000; Potency, µM (top dose mostly 40 µM), for inactives: at the highest dose activity change, negative = inhibition, hits mostly inhibitors; active = well fitted falling ratio curve with the 530 nm signal flat; inconclusive = other ratio curves, or a change in one channel alone; inactive = flat curves in the ratio and both channels; the % refers to the ratio; note: % is set by controls: 0 for no effect and ±100 for the full control effect; nearly all actives have a fitted effect of over 50% in size; tested in ME-180 cells; beta-lactamase reporter
* hit, by the source's call; u = inconclusive; x = not tested or not shown; & = joins results of further samples; [ ] = remark or other dose. Potency is the fitted concentration of half-maximal effect. Some of the compounds tested (hit frequency here may not be typical).

item	mol	SmPrx2 inh	Anthrax LT inh
1	CCOCCCn1c(=S)[nH]c2ncccc2c1=O	>57	16%
2	CN(C)C(=O)Cn1c(=O)n(C)c2ccccc21	>57	x
3	C[C@]12CCC(=O)C=C1CC[C@@H]1[C@@H]2CC[C@]2(C)C(=O)CC[C@@H]12	x	-5%&-3%
4	O=C(CN1C(=O)c2ccccc2S1(=O)=O)Nc1cccnc1	>57	3%
5	COc1ccc(S(=O)(=O)NCCC(=O)NC2CCCCCCC2)cc1	>57	3%
6	O=C(Nc1nsc(-c2ccccc2)n1)c1ccncc1	>57	7%
7	CC(=O)Nc1ccc(S(=O)(=O)NC(CC(=O)O)c2ccc(OC(C)C)cc2)cc1 (stereo not given)	>57	-3%
8	O=C(CSc1nnc2sc3ccccc3n12)c1ccco1	>57	-5%
9	Cn1nc(OCC(N)=O)ccc1=O	>57	-6%
10	Cc1cccc(NC(=O)C2CCCN(c3nc(C)cc(C)n3)C2)c1 (stereo not given)	>57	-12%
11	O=C(CCc1nc2ccccc2[nH]1)NCc1ccc2c(c1)OCO2	>57	-5%
12	CCOC(=O)c1cn(CC)c2cc(N3CCOCC3)c(F)cc2c1=O	x	-25%
13	O=C(NCc1nc2ncc(Br)cc2[nH]1)c1ccccc1	>57	-5%
14	CCC(C)c1ccc2oc(-c3ccc(NC(=O)Cn4cnc5c(=O)n(C)c(=O)n(C)c54)cc3)nc2c1 (stereo not given)	>57	-9%
15	Cc1nnc(SCC(=O)N2CCOCC2)s1	>57	2%
16	Cn1c(=O)n(C)c2cc(S(=O)(=O)NCc3ccccc3)ccc21	>57	3%
17	Cc1cc(OCc2nn[nH]n2)c2c3c(c(=O)oc2c1)CCCC3	>57	u
18	N#Cc1c2ncn(CC(=O)c3ccc(Br)cc3)c(=O)c2c2n1CCC2	>57	-5%
19	COc1cc(C(N)=O)ccc1OCc1ccccc1	>57	-12%
20	N#CCCn1c(=O)c(-c2ccc(F)cc2)nc2cnc(Oc3cccc(Cl)c3)nc21	>57	u
21	CCCCn1nc(C(=O)N2CCc3ccccc32)c2ccccc2c1=O	>57	-29%
22	N#Cc1c(N)nc(N2CCCC2)c(C#N)c1-c1ccc(Cl)cc1	>57	1µM*
23	CCCCOC(=O)C1=C(N)OC2=C(C(=O)CCC2)[C@]12C(=O)N(C)c1ccccc12	>57	u
24	CCOc1ccccc1C(=O)NCc1ccco1	>57	0%
25	N[C@H](C(=O)N[C@@H]1C(=O)N2C(C(=O)O)=C(Cl)CS[C@@H]12)c1ccccc1	>57&>57&>57	8%[3.58 µM]
26	Cc1ccc(NC(=O)CCn2c(=O)oc3ccccc32)c(C)c1	>57	11%
27	CC(C)(C)NCC[C@@H](O)c1cc(C(F)(F)F)nc2c(C(F)(F)F)cccc12	>57	-2%[8 µM]
28	CNCCc1ccc(O)c(O)c1	>57	4%
29	N#CCCn1c(SCC(=O)NCCc2ccc(F)cc2)nc2ccccc21	>57	15%
30	CCOC(=O)C(C)Sc1nc2c(c(=O)[nH]c(=O)n2C)n1Cc1ccc(Cl)cc1 (stereo not given)	>57	u
31	CCC(=O)Nc1ccc2c(c1)nc1n2CCSC1	>57	u
32	COc1ccccc1NC(=O)CSc1nnc(-c2ccncc2)n1CC1CCCO1 (stereo not given)	>57	-3%
33	O=C(c1cccs1)c1cn(CC(=O)N2CCc3ccccc3C2)c2ccccc12	>57	-11%
34	O=C1C2C3C=CC(C3)C2C(=O)N1CCCCN1C(=O)C2C3C=CC(C3)C2C1=O (stereo not given)	>57	-2%
35	Cc1ccc2nc3c(cc(C(=O)NCCCn4ccnc4)n3C)c(=O)n2c1	>57	u
36	CCC/C=C(\CCC)C(NS(C)(=O)=O)c1ccccc1 (stereo not given)	>57	-7%
37	CCOC(=O)C1CCCN(CC(=O)Nc2c(C(=O)OC)[nH]c3ccc(Cl)cc23)C1 (stereo not given)	>57	14%
38	O=C(NCc1ccco1)c1cc(-c2ccccc2)on1	>57	-4%
39	CCC(=Nc1ccc(OC)cc1OC)c1c(O)[nH]c(=O)[nH]c1=O	>57	-10%
40	CCOC(=O)c1sc(=NC(=O)c2ccc(S(=O)(=O)N3CCOCC3)cc2)n(C)c1C	>57	-8%
41	CC1(C(=O)O)C=CCN1C(=O)c1ccccc1 (stereo not given)	x	16%
42	CCOCCCNC(=O)Cn1nc(-c2ccccc2)ccc1=O	>57	9%
43	Cc1cc(C(=O)OCn2nnc3ccccc3c2=O)c(C)n1-c1ccccc1	>57	u
44	O=C(Nc1ccc(Br)cc1Cl)Nn1cnnc1	>57	14%
45	Cc1ccc(-c2n[nH]c(=S)n2C)cc1	x	-3%
46	Cn1cnnc1SCC(=O)Nc1ccccc1Sc1ccccc1	>57	2%
47	COc1ccc(C2SCC(C(=O)O)N2C(C)=O)cc1OC (stereo not given)	>57	-10%
48	CCOC(=O)N/N=C1/C[C@@H](O)[C@@H](O)[C@@H]2[C@@H]3C(=O)N(C[C@@H]4CCCO4)C(=O)[C@H]3CC[C@H]12	x	7%[8 µM]
49	Nc1nc(C2CCCN2S(=O)(=O)c2ccc(Cl)cc2)cs1 (stereo not given)	>57	-12%
50	CC(=O)N1CCc2cc(C(=O)CN3CCCN(Cc4ccc(F)cc4)C3)ccc21	>57	-2%
51	Cc1cc(NC(=O)c2cc(-c3ccc4c(c3)OCO4)on2)n(-c2ccccc2)n1	>57	23%
52	CC(C)CCNC(=O)CN(CCN1CCOCC1)C(=O)Cn1nnc(-c2ccc(F)cc2)n1	>57	7%
53	COc1ccccc1N1CCN(C(=O)CSc2nnc(NC(=O)C3CCC3)s2)CC1	>57	3%
54	CN1CCN(c2nc3c(c(=O)n(C)c(=O)n3C)n2C)CC1	>57	6%[8 µM]
55	NC(=O)CSc1nnc(Cn2c(=O)sc3ccccc32)n1-c1ccccc1	>57	-3%
56	Cc1cc(OC(=O)CNC(=O)OC(C)(C)C)c2c(C)cc(=O)oc2c1	>57	8%
57	Cc1ccc2[nH]c(=O)c(C(c3nnnn3CC3CCCO3)N3CCc4ccccc4C3)cc2c1 (stereo not given)	>57	-17%
58	Cc1ccc(S(=O)(=O)NCCC(=O)Nc2nnc(C3CC3)s2)cc1C	>57	-13%
59	COc1ccccc1CN1C(=O)C2CC=CCC2C1=O (stereo not given)	>57	u
60	COc1ccc(NC(=O)c2ccc(S(=O)(=O)N(C)C)cc2)cc1OC	>57	-7%

Later entries.
item	mol	SmPrx2 inh	Anthrax LT inh
61	Cc1cc(C(=O)OCC(=O)c2ccc3c(c2)OCCO3)c(C)o1	>57	-4%
62	O=C(O)c1nc(-c2ccccc2)[nH]c1C(=O)O	>57	-18%[8 µM]
63	CC1=C(/C=C/C(C)=C/C=C/C(C)=C/C(=O)Nc2ccc(O)cc2)C(C)(C)CCC1	x	u
64	N[C@H](Cn1ccc(=O)[nH]c1=O)C(=O)O	>57	-4%
65	COc1cc(Br)cc(-c2nc3c(c(=O)[nH]c(=O)n3Cc3ccccc3)n2C)c1O	>57	-2%
66	CN(C)S(=O)(=O)c1ccc(C(=O)Nc2cccc(C(=O)O)c2)cc1	>57	x
67	N#Cc1c(NC(=O)CSc2nc3ccccc3c(=O)n2Cc2ccco2)sc2c1CCCC2	>57	-6%
68	CCOCCCn1c(=NC(=O)c2cccnc2)c(C(=O)OCC)cc2c(=O)n3ccccc3nc21	>57	u
69	CC(=O)NCCc1c[nH]c2ccc(O)cc12	>57	1%
70	Cc1cc(C)n(CCOC(=O)C2C(C=C(Cl)Cl)C2(C)C)n1 (stereo not given)	>57	8%
71	CCOc1cccc(C=Nc2cc(C)cc(C)c2O)c1O	u	u
72	COc1ccc(-n2c(Cn3c(=O)sc4ccccc43)nnc2SCC(=O)N2CCCCC2)cc1	>57	17%
73	COc1ccc(C(=O)CSc2nc3nc(C)cc(C)c3c(=O)[nH]2)cc1OC	>57	-3%
74	Cc1nc2cnc(OCc3ccccc3)nc2n(Cc2ccc(F)cc2)c1=O	>57	u
75	COc1ccc(Cn2c(CCC(=O)Nc3ccc(CC#N)cc3)nc3cccnc32)cc1	>57	-17%
76	c1cn(-c2ncnc3sc4c(c23)CCCC4)cn1	>57	-13%
77	O=C(CN(CC(=O)N1CCOCC1)S(=O)(=O)c1ccc(Br)s1)N1CCOCC1	>57	3%
78	Cc1c(NC(=O)c2cc(C(C)C)on2)c(=O)n(-c2ccccc2)n1C	>57	12%
79	COc1cccc(Cn2c(=O)c(-c3cccs3)nc3cnc(N4CCN(C)CC4)nc32)c1	>57	u
80	OCCCNCc1ccncc1	>57	-8%[8 µM]
81	COc1ccc(C2(O)CC3CCC(C2)N3c2cc(C)nc(-c3ccccc3)n2)cc1 (stereo not given)	>57	u
82	CCC(=NCCCN(CC)CC)c1c(O)n(C2CCCCC2)c(=O)[nH]c1=O	>57	-15%
83	CCCCCCN=C(C)c1c(O)n(CCCC)c(=O)[nH]c1=O	>57	22%
84	CC(C)C(OC(=O)c1ccco1)C(=O)NC1CCCCC1 (stereo not given)	>57	11%
85	O=C(O)CCc1ccc(-c2ccccc2)n1NC(=O)c1ccco1	>57	-2%
86	Cc1cc(C)n(-c2nc3c(c(=O)[nH]c(=O)n3C)n2Cc2ccc(F)cc2)n1	>57	14%
87	O=C(Oc1ccc(-c2cnc3ccccc3n2)cc1)c1ccco1	>57	9%
88	CCS(=O)(=O)c1nc(NC(C)=O)n[nH]1	>57	-7%
89	C/C(Nc1ccc(F)cc1)=C(/C#N)C(N)=O	>57	-5%
90	O=C(CCCNS(=O)(=O)c1ccc(Br)cc1)N1CC[C@@]2(O)CCCC[C@H]2C1	>57	x
91	CCOc1cccc(NC(=O)Cc2cccs2)c1	>57	-7%
92	Cn1cc(-c2nc3cnc(N4CCNCC4)nc3n(C)c2=O)c2ccccc21	>57	u
93	C=CCN1CCc2c(cc(O)c(O)c2Cl)[C@H](c2ccccc2)C1	>57	16%
94	O=C(COc1ccccc1)N1CCN(C2CCCC2)CC1	>57	-5%
95	CCOC(=O)c1ccc(N2C(=O)c3n[nH]c(C)c3C2c2ccc(OC)c(OC)c2)cc1 (stereo not given)	>57	-9%
96	O=C(c1ccccc1)c1cn(CC(=O)N2CCCC2)c2ccccc12	>57	10%
97	COc1cc(C2N(c3ccc(Cl)cc3)C(=O)C3CCCN32)cc(OC)c1OC (stereo not given)	>57	u
98	O=C(C1CCCO1)N1CCN(c2c3c(nc4cc(-c5ccc(F)cc5)nn24)CCC3)CC1 (stereo not given)	>57	-10%
99	COc1ccccc1N1CCN(C(=O)c2cc(C3CC3)on2)CC1	>57	0%
100	Cc1ccccc1-c1nc(CN2CCC(C(=O)NCCCN3CCOCC3)CC2)c(C)o1	>57	x
101	Cc1ccc(C2CC(c3ccc(C)cc3)n3nc(N)nc3N2)cc1 (stereo not given)	>57	-5%
102	CCC12CN3CC(CC)(CN(C1)C3c1ccc(OC(C)C)cc1)C2=O (stereo not given)	>57	6%
103	NC(=O)C1CC(=O)N(c2ccc(OCC(=O)Nc3cccc(C(F)(F)F)c3)cc2)C1 (stereo not given)	>57	-1%
104	Cc1cc(C(=O)OCC(=O)N2CC(=O)Nc3ccccc32)no1	>57	17%
105	COc1ccc(NC(=O)CCc2nc(-c3ccc(C)cc3)no2)c(OC)c1	>57	u
106	Cc1cc(=O)oc2cc(OCC(=O)N3c4ccccc4CC3C)ccc12 (stereo not given)	>57	-20%
107	COc1cccc(C2=NC(C)(C)NC(c3ccccc3O)C2)c1 (stereo not given)	>57	-16%
108	O=C(CSc1ncnc2nc[nH]c12)N1CCOCC1	x	-4%
109	CCCCOC(=O)C1=C(C)Nc2ncnn2C1c1ccc(OC)c(OC)c1 (stereo not given)	>57	2%
110	Oc1ccc2c(c1)oc1cc(O)ccc12	>57	-7%
111	Clc1ccc(SCCCCn2cncn2)cc1	>57	2%
112	CC(=O)N(Cc1cc2cc(C)c(C)cc2n2nnnc12)CC1COCCO1 (stereo not given)	>57	-9%
113	COc1ccccc1NC(=O)CSc1nnc(C)o1	>57	-3%
114	Cc1cc(C)c(C(=O)OCCNC(=O)c2cccnc2)cc1C	>57	u
115	CCOC(=O)C1=C(N)n2c(s/c(=C\c3cccnc3)c2=O)=C(C#N)C1c1cccnc1 (stereo not given)	>57	3%
116	CN(C)c1ccc(NC(=O)CSCc2nc3c(nnn3Cc3ccc(F)cc3)c(=O)[nH]2)cc1	>57	u
117	COc1cccc(CN2CCN(C(=O)c3cccc4ccccc34)CC2)c1OC	>57	u
118	CCN1CCN(CC(=O)NC2CCCCC2)C(=O)C1=O	>57	-2%
119	CCOc1ccc(C(=O)NCc2ccco2)cc1	x	-5%
120	Clc1ccc2c(c1)[C@H]1OCC[C@H]1[C@@H](c1ccco1)N2	>57	-23%
